Menin-MLL FL inh = menin-MLL binding inhibition, fluorescein peptide | Fluorescence polarization, fluorescein-MLL peptide displacement from menin | 290,000 tested, under 10 active | FP activity change, % at 61.4 µM | AID 1766; inconclusive = falling polarisation curve, or a change in total fluorescence; inactive = total fluorescence flat and polarisation flat or rising; no compound was filed as active; the % refers to the polarisation; negative = inhibition;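 note: % of control where 0% means no effect; inhibitors lower the polarisation; unlabelled MLL peptide was the positive control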
gsp antagonist = antagonizes gsp, the McCune-Albright syndrome mutation; Potency, µM (doses to about 76.9 µM), for the others: at the highest dose activity change, negative = inhibition, usual class: inhibitors; 340,000 tested, 0.4% active; gsp-mutant cells, cAMP HTRF, 30 min; control for the full effect not named in the record; active = falling curve of any shape with a large fitted effect; inconclusive = falling curve, mostly with a smaller effect; inactive = flat or rising curve; cell line not stated here;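 note: intracellular cAMP measured with PDE inhibitor Ro 20-1724 present during compound exposure; potency is the fitted concentration of half-maximal effect; % is set by controls: 0 for no effect and ±100 for the full control effect; nearly all actives have a fitted effect of over 65% in size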
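Measurement of cellular cAMP by homogeneous time-resolved fluorescence following a 30 min compound exposure at 37C. The PDE inhibitor […] was present throughout; the assay buffer was DPBS with 0.05% BSA and 0.005% Tween 20.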
TRPML1 agonist = activates the human TRPML1 channel; activation, % (no concentration beside the values); AID 624414; 410,000 tested, 0.12% active; Q9GZU1; TRPML1-expressing cells, Ca2+ dye fluorescence, FDSS; host cell line not named in the record; reference of the full effect not given here; in the data active = activation above about 50%; inconclusive = about 30% to 50%; inactive = below about 30%; note: 0% is about no effect; the text of the record puts the active cut at 80%
Target sequence (Q9GZU1 whole entry, looked up): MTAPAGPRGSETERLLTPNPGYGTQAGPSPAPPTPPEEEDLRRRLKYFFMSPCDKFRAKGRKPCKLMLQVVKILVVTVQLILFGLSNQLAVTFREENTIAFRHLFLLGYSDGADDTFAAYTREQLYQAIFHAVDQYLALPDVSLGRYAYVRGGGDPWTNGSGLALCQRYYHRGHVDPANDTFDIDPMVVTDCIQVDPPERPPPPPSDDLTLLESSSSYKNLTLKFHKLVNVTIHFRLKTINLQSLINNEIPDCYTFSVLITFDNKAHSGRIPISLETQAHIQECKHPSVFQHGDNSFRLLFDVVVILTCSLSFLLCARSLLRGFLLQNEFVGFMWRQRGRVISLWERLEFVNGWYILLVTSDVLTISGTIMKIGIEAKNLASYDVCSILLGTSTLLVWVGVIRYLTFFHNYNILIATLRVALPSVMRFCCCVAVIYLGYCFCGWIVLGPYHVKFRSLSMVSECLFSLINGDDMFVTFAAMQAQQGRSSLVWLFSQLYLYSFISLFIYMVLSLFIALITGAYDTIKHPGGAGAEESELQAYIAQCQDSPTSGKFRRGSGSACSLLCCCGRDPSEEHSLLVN
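Kinetic FDSS Ca2+ read in Tet-induced TRPML1-DL cells (ABD Ca8 dye plus quencher, 45-90 min RT loading): baseline, then compound, then 110 s agonist window; EC80 agonist 54-4 at 4uM final added afterwards for a 110 s antagonist window.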
TRPML1 blocker = blocks the human TRPML1 channel | Q9GZU1 | TRPML1-inducible cells, Ca2+ dye fluorescence, FDSS; hits give low values; inhibition of EC80 agonist-evoked calcium signal | activity change, negative = inhibition, % (test concentration not listed) | 390,000 tested, 0.02% active; in the data active means activity change below about -50%; inconclusive means about -30% to -50%; inactive means above about -30%;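 note: stimulus is agonist 54-4 at its EC80 concentration; % is set by controls: 0 for no effect and ±100 for the full control effect; compound concentration not given in the record; the text of the record puts the active cut at -80%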
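Calcium fluorescence in TRPML1-DL cells induced overnight with Tet: a 110 s read after compound pin addition, then a 110 s antagonist read after challenge with 54-4 at 4 uM final (EC80).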
ClpP mod = qHTS Assay for Activators of ClpP; purified B. subtilis ClpP, FRET peptide cleavage, 20 min; Potency, µM (titrated, usually from 57.5 µM), without a hit: at the highest dose activity change, negative = active; 340,000 tested, 1.9% active; AID 651965, 2013; active = well fitted falling curve with a large enough effect; inconclusive = small, poorly fitted or top-dose-only effect; inactive = no such curve, though single readings can be large or run the other way; note: potency is the fitted concentration of half-maximal effect; the source files actives as falling curves though it sought activators and does not explain the sign; nearly all actives have a fitted effect of over 65% in size; many hits overshoot -100%
Target sequence (P80244 whole entry, looked up): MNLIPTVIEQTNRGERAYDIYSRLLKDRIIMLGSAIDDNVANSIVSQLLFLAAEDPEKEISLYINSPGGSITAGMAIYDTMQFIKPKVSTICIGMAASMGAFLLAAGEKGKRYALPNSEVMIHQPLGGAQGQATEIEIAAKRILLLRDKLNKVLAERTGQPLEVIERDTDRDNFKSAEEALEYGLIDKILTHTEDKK
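Buffer: 100 mM Tris/HCl pH8, 100 mM KCl, 0.05% low protease BSA, 2.5% glycerol, 0.01% Tween-20. ClpP 10 microg/mL final; 20 min RT; delta FRET normalized to ADEP and DMSO controls.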
gsp ag = agonists of gsp mutant (McCune-Albright syndrome); 340,000 tested, 0.13% active; gsp mutant cells, cAMP HTRF, 30 min; control for the full effect not named in the record; AID 624287; Potency, µM (top dose mostly 76.9 µM), inactives show at the top dose activation (cAMP increase), actives largely listed as activators; active = well fitted activation curve with a large enough effect; inconclusive = small, poorly fitted or top-dose-only effect, or another doubt; inactive = no such curve, though single readings can be large or run the other way; cell line not stated here;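 note: phosphodiesterase inhibitor Ro 20-1724 added with compounds to block cAMP breakdown; potency is the fitted concentration of half-maximal effect; nearly all actives have a fitted effect of over 60% in size; about a fifth of the inactives were tested at one dose only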
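Cells stably selected in G418 were plated at 2000/well, grown 16-24 hr, then given compounds in DMSO with the PDE inhibitor […] (300 uM solution added) for 30 min at 37C; cAMP was read by HTRF.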
Numbers without * were called inactive; ? = inconclusive; / = not tested or not shown; & = joins results of further samples; [ ] = dose if it differs, or a comment.

SMILES	Menin-MLL FL inh	gsp antagonist	TRPML1 agonist	TRPML1 blocker	ClpP mod	gsp ag
O=C(c1ccccc1)c1nn(-c2ccccc2)c(=O)cc1C(F)(F)F	2.0	-7%	2.1	0	?	4%
O=C(Cn1cnc([N+](=O)[O-])c1)Nc1ccccc1C(F)(F)F	-3.4	4%	-0.3	0	/	0%
CC(=O)c1ccc(NS(=O)(=O)c2ccc3c(c2)N(C)CCO3)cc1	0.4	-16%	0.2	-3	1.6%	-40%[inhibitor]
COc1cc(=O)[nH]c(SCC(=O)Nc2ccc3ccccc3c2)n1	0.4	?	0.2	17	-0.8%	?
COC(=O)[C@@]12CCCCN1[C@H](c1ccc(-c3cccc(Cl)c3)c(OC)c1)[C@H]1C(=O)N(C)C(=O)[C@H]12	/	?	-0.6	30	-15%	/
O=C(Oc1ccc(Cl)c2cccnc12)N1CCOCC1	4.5	12%	3.1	5	32µM*	-29%
Cc1cccc2sc(NC(=O)C3=NN(c4ccccc4)C(=O)CC3)nc12	0.3	-11%	-1.0	-11	4.1%	-43%[inhibitor]
CCCc1cc(=O)[nH]c2nnc(SCC(=O)Nc3cccc(C)c3)n12	/	/	0.5	-4	1.9%	/
CCOC(=O)CN1C(=O)COc2ccc(C(C)(C)C)cc21	-2.1	9%	1.5	-6	-16%	-41%[inhibitor]
CCCCn1c(-c2cccs2)nc2oc3ccccc3c(=O)c2c1=O	0.4	-40%	0.3	-1	-1.6%	-5%[15.4 µM]
CCc1cccc(NC(=O)COC(=O)/C=C/c2cccs2)c1	/	7%	0.3	9	-3.1%	-2%[15.4 µM]
CCc1cccc(-n2c(C)nc3c(cnn3-c3ccc(Cl)cc3)c2=O)c1	/	/	2.4	78	-1.6%	/
CCN(CC)S(=O)(=O)c1ccc(S(=O)(=O)NCc2cccs2)cc1	-0.2	7%	0.4	1	/	-25%[15.4 µM]
CCOC(=O)C1(CCOc2ccccc2)CCN(C(=O)CCSC)CC1	/	-12%	-0.6	-5	/	?
CCc1ccc(-n2c(=O)c3c4c(sc3n(CC(=O)N3CCC(C)CC3)c2=O)CCC4)cc1	/	/	0.2	17	-0.5%	/
CCn1cc(C(=O)N2CCN(c3cc(C)ccc3C)CC2)c(=O)c2cc(S(=O)(=O)N3CCCCC3)ccc21	/	/	-0.8	5	-2.0%	/
O=C(NCCc1ccccc1)c1ccc(Nc2nc3ccccc3n3nnnc23)cc1	/	/	1.7	-7	294%	/
CC1=C([N+](=O)[O-])C(c2ccccc2C(F)(F)F)NC(=O)N1C (stereo not drawn)	-0.6	-7%	-0.4	-2	-7.2%	-2%[15.4 µM]
O=C(CCC1CCCC1)NCCS(=O)(=O)N1CCN(c2ccc(F)cc2)CC1	/	1%	0.3	-1	-5.0%	?
C/C(Cn1cnc([N+](=O)[O-])n1)=N\NC(=O)c1ccncc1	1.3	8%	-0.2	-4	-2.9%	24%

Some of the entries so far, field by field:
CCc1cccc(NC(=O)COC(=O)/C=C/c2cccs2)c1
- Menin-MLL FL inh: /
- gsp antagonist: 7%
- TRPML1 agonist: 0.3
- TRPML1 blocker: 9
- ClpP mod: -3.1%
- gsp ag: -2%[15.4 µM]
CCc1cccc(-n2c(C)nc3c(cnn3-c3ccc(Cl)cc3)c2=O)c1
- Menin-MLL FL inh: /
- gsp antagonist: /
- TRPML1 agonist: 2.4
- TRPML1 blocker: 78
- ClpP mod: -1.6%
- gsp ag: /
CCN(CC)S(=O)(=O)c1ccc(S(=O)(=O)NCc2cccs2)cc1
- Menin-MLL FL inh: -0.2
- gsp antagonist: 7%
- TRPML1 agonist: 0.4
- TRPML1 blocker: 1
- ClpP mod: /
- gsp ag: -25%[15.4 µM]

Remaining list, next part.
SMILES	Menin-MLL FL inh	gsp antagonist	TRPML1 agonist	TRPML1 blocker	ClpP mod	gsp ag
CC1CN(c2ccc(NS(=O)(=O)c3ccccc3)cc2C(=O)O)CC(C)O1 (stereo not drawn)	3.0	5%	-0.5	12	/	-3%
CCOC(=O)C1CCN(S(=O)(=O)c2ccc3c(c2)CCN3C(=O)C2CCC2)CC1	/	-7%	0.4	-20	0.3%	-2%
O=C(CN1CCCCC1)NCC1(c2ccccc2)CCCC1	-0.5	9%	15	-2	/	7%[15.4 µM]
C=C[C@@H]1c2cc(C)ccc2N(S(=O)(=O)c2ccc(C)cc2)[C@H](c2ccccc2C(F)(F)F)C1(C#N)C#N	/	12%	1.7&0.7	-22	-6.3%&-0.2%	-27%
CC(=O)Nc1ccc(NC(=O)C(C)n2nc([N+](=O)[O-])c(Br)c2C)cc1 (stereo not drawn)	3.2	-1%	-0.1	23	-4.8%	13%
O=C1CC(=O)N(Cc2ccco2)C(=O)N1	?	9%	1.3	14	-0.6%	-1%
Clc1ccc(-c2cn3cc(Br)ccc3n2)cc1Cl	-0.2	-4%	0.2	4	-4.5%	?
CCCC(=O)NCc1ccc2c(c1)cc(C)n2C	?	6%	1.5	-8	-15%	-14%
Cc1nnc(SCC(=O)Nc2ccc(F)cc2)n(N)c1=O	-0.6	10%	0.2	-7	-1.2%	-34%[inhibitor]
O=C(Nc1nc2n(n1)C(c1ccc(F)cc1)C=C(c1ccccc1)N2)c1cccc([N+](=O)[O-])c1 (stereo not drawn)	/	/	-0.9	-8	-2.2%	/
O=S(=O)(NCC(c1ccc2c(c1)OCO2)N1CCOCC1)c1ccccc1 (stereo not drawn)	/	5%	-0.6	0	-3.4%	-5%
COc1ccc(NC(=S)NC2CCCC2)c(OC)c1	4.2	5%	0.2	-6	1.4%	-28%[15.4 µM]
CCOC(=O)c1ccccc1NC1c2ccccc2C(=O)N1c1ccc(C)cn1 (stereo not drawn)	1.1	-13%	0.2	3	?	1%
CC(=O)Nc1ccc(C(=O)OC2CCCCC2=O)cc1 (stereo not drawn)	2.0	14%	-0.2	-1	0.7%	13%
CCOc1ccc(-c2cc(C(=O)NCCc3ccc(OC)c(OC)c3)c3c(-c4ccc(F)cc4)[nH]nc3n2)cc1	/	/	0.7	-4	-1.0%	/
COc1ccccc1N1CCN(C(=O)Nc2cccc(Cl)c2)CC1	3.3	6%	2.2	-14	-0.9%	-36%[inhibitor]
O=C(NCCC(=O)N1CCN(c2ncccn2)CC1)c1ccccc1Cl	-2.7	-3%	-0.8	-8	-4.9%	-10%
O=C(CN1CCN(CC(=O)Nc2ccccc2C(F)(F)F)CC1)Nc1ccccc1F	-2.3	-7%	0.5	-21	-2.1%	12%
Cc1oc(C)c(S(=O)(=O)NCc2cccs2)c1C(=O)O	-2.4	4%	1.9	40	-1.1%	11%
COc1cccc(OC)c1C(=O)OCC(=O)NCc1ccco1	/	-5%	0.2	-6	-2.6%	-65%[inhibitor]
COc1ccc(/C=C/C(=O)c2cc(F)ccc2OC(=O)c2ccc(OC)c(OC)c2)cc1OC	15	-11%	0.4	21	-1.9%	11%
Cc1ccc(/C=C/S(=O)(=O)NCC(=O)OCC(=O)Nc2c(F)cccc2F)cc1	/	8%	-0.2	-10	-2.8%	4%
CCCCN(Cc1ccccc1)S(=O)(=O)c1cc(Br)cc2c1N(C(C)=O)CC2	/	/	2.0	14	-3.5%	/
CCCC(=O)NCC(c1cccs1)S(=O)(=O)c1ccc(C)cc1 (stereo not drawn)	-2.8	1%	0.1	-6	0.0%	?
CCC1(c2ccccc2)C(=O)N(C(=O)OC(C)(C)C)N1C(=O)OC(C)(C)C (stereo not drawn)	/	12%	-0.6	-14	1.0%	-2%
O=C(COC(=O)c1ccc(F)c(S(=O)(=O)N2CCOCC2)c1)NCc1ccc(Cl)cc1	/	-7%	-0.8	49	1.6%	-10%
O=C(CN1C(=O)CSCC1=O)NCc1ccc(F)cc1	-2.9	3%	-0.4	-10	0.2%	-6%
Cc1cc([N+](=O)[O-])cc([N+](=O)[O-])c1NCC(C)C	0.9	-19%	-0.7	3	/	-25%
Cc1ccc(C)c(Cn2nnc3c(=O)[nH]c(C4CCN(C(=O)c5ccco5)CC4)nc32)c1	-0.8	-3%	3.2	23	/	3%
COC(=O)c1ccc(C(NC(=O)OCc2ccccc2)/C(F)=C/[C@@H](C)C(=O)O)cc1 (stereo partly drawn)	-0.5	-19%	-0.3&1.8	26&-9	1.1%	/
CCOc1ccccc1OCCCC(=O)N1CCN(S(=O)(=O)c2ccc(C)cc2)CC1	1.9	-6%	3.0	13	1.0%	7%
O=C(CSC1=Nc2ccccc2N=C(c2ccc(F)cc2)C1)NCc1ccc(Cl)cc1	/	/	0.9	37	2.2%	/
CC(C)(C)OC(=O)N1CCCC(C(=O)Nc2ccc(C(=O)NCc3ccccc3)cc2)C1 (stereo not drawn)	/	2%	-0.5	12	-0.4%	/
Cc1ccccc1-n1c(-c2ccc(Cl)cc2)cnc1SCC(=O)NC1CCS(=O)(=O)C1 (stereo not drawn)	2.0	?	0.5	3	-1.2%	-7%
CC(=O)Nc1ccc(-c2cn3c(n2)SCC3)cc1	?	-8%	-0.8	32	0.9%	-2%[15.4 µM]
CCn1cc(C(=O)NCc2ccc(Cl)cc2)c(=O)c2cc(S(=O)(=O)N3CCOCC3)ccc21	4.5	-22%	-0.1	-8	-3.2%	-28%
CCOC(=O)C1CN(S(=O)(=O)c2cccs2)c2ccc(CC(=O)OC)cc2O1 (stereo not drawn)	-0.6	-7%	2.8	20	-0.3%	40%
COCC(=O)N(Cc1ccc(OC)cc1)Cc1nc2ccccc2c(=O)[nH]1	2.4	7%	-0.3	3	-0.3%	11%
O=C(CCCN1C(=O)c2cccc3cccc(c23)C1=O)NC1CCS(=O)(=O)C1 (stereo not drawn)	0.1	6%	0.0	13	/	-1%[15.4 µM]
O=C(c1ccc2c(c1)OCO2)C1CCCN(Cc2cccc(C(F)(F)F)c2)C1 (stereo not drawn)	/	0%	2.0	13	-4.5%	3%
CCCC(=O)c1cn(CC(=O)OC)c2ccccc12	2.2	-2%	0.8	-1	-2.5%	-18%
O=C(Cn1cnc2ccccc21)N1CCN(S(=O)(=O)c2ccccc2)CC1	-2.8	-14%	-1.3	-14	3.1%	24%[15.4 µM]
Nc1c(-c2nc(-c3cccs3)no2)nnn1-c1ccccc1Cl	/	/	1.9	-20	0.7%	/
CC(C)OCCCN1CC(=O)N2C(c3ccccc3)c3[nH]c4ccccc4c3C[C@H]2C1=O (stereo partly drawn)	-7.6	-3%	-0.1	-4	/	20%
CC1(C)CC(=O)C2=C(C1)Nc1ccccc1NC2c1cccnc1 (stereo not drawn)	0.7	0%	0.9	-8	-4.1%	-2%[15.4 µM]
Cc1cccc(/N=C/c2c(O)c3ccccc3oc2=O)n1	5.7	3%	1.5	5	-21%	13%
CCOc1ccc(NC(=O)c2ccc(NC(=O)N3CCSc4ncccc43)cc2)cc1	/	/	1.5	-19	-8.8%	/
COc1ccc(/C=C2\SC(=O)N(CCNC(=O)C3=COCCO3)C2=O)cc1	/	12%	1.3	2	-3.3%	28%
CCOC(=O)NCCOC(=O)Nc1ccc(Cl)cc1	-2.5	8%	0.5	-13	0.5%	4%

Screening results: PubChem, National Center for Advancing Translational Sciences (NCATS)
